# VDR inh – vitamin D3 receptor (human) inhibition. P11473. VDR-SRC2-3 peptide fluorescence polarization, 2 h. Potency, µM, without a hit: max response, negative = inhibition, most hits filed as inhibitors. hit rate 0.93% among 400,000; active = well fitted inhibition curve with a large enough effect; inconclusive = small, poorly fitted or top-dose-only effect, or another doubt; inactive = no such curve, though single readings can be large or run the other way; also: series mostly up to about 120 µM
# Target sequence (P11473 whole entry, looked up): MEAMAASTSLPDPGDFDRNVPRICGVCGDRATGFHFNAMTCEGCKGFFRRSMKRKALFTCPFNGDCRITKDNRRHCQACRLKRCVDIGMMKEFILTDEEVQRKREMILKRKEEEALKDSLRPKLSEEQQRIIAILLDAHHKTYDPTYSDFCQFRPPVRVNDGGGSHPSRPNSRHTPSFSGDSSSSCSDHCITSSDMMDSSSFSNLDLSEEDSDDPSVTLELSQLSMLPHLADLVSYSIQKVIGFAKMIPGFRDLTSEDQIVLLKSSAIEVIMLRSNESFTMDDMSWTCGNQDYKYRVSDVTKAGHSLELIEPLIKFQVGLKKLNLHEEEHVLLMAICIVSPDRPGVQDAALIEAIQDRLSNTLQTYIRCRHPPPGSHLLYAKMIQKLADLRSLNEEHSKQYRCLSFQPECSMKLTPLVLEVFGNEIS
#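 Compounds are added to VDR with labelled SRC2-3 coactivator peptide and held 2 h at room temperature. Inhibition of the VDR–peptide interaction is then read as a change in fluorescence polarization.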
# * hit, by the source's call; ? = inconclusive; & = joins results of further samples. % is scaled to controls: 0 for no effect and ±100 for the full control effect; potency is read from the fitted curve at half-maximal effect.
molecule,VDR inh
OCC1(CCOc2ccccc2)CCN(Cc2cc(Cl)ccc2O)CC1,-22.1%
Cc1ccc(NC(=S)NCc2ccc(F)cc2)c(C)c1,4.5%
O=C(CSc1nc(-c2ccco2)cc(C(F)(F)F)n1)Nc1cccnc1,-5.1%
CCOc1c2ccc(C(=O)NCCCCc3ccccc3)cc2nn1C,13.8%
Cc1ccc(NCc2cccn2-c2nnc(N3CCC(C(=O)NCc4ccc(F)cc4)CC3)s2)cc1,-8.6%
O=C(Cc1ncc(C(F)(F)F)cc1Cl)NCCc1ccccc1,-11.8%
CCn1c(CCNC(=O)c2ccc(OC)cc2)nnc1SCc1ccc(Cl)cc1Cl,0.3%
C/C(=N\NC(=O)CSc1nc(C)cc(C)n1)c1cccc([N+](=O)[O-])c1,-11.0%
COc1ccc(-n2c(SCC(=O)NCCC(C)C)nc3ccsc3c2=O)cc1,-1.6%
Cc1ccc(-c2ccc(SCC(=O)Nc3nonc3C)nn2)cc1,-5.8%
O=C(CNC(=O)Cc1ccc(Cl)cc1)NCc1ccco1,-5.9%
Nc1c(/C=C2/C=CC(=O)C(O)=C2)c(=O)nc2sc(CC(=O)N3CCOCC3)nn12,-15.0%
CC1CC(=S)Nc2ccccc2S1 (centres undefined),2.7%
CC(=O)Nc1cc(-n2cnnn2)ccc1C,-1.8%
CCc1cccc(C)c1NS(=O)(=O)c1ccc2c(c1)NC(=O)C(C)C(=O)N2 (centres undefined),16.9%
CCOc1c(Cl)cc(CNCC(C)C)cc1Cl,-4.1%
CC(=O)c1ccc(NS(=O)(=O)c2ccc(-n3cccn3)cc2)cc1,11.9%
O=C(O)CC1=C(Nc2ccccc2)C(=O)N(c2ccccc2)C1c1ccc(Br)cc1 (centres undefined),-28.3%
CCCCN=C1C([N+](=O)[O-])=CC=C2C1=NC1(CCCCC1)N2O,1.0%
COc1cccc(-c2nc3c(c(SCc4ccccc4Cl)n2)Cc2c(CO)cnc(C)c2O3)c1,-3.7%
CCOC(=O)c1cnc(SCC(=O)N2CCOCC2)nc1N,15.1%
O=C(CCSCc1cnn(-c2ccccc2)c1-n1cccc1)NCc1ccccc1F,-0.1%
CC(C)c1ccc(C(=O)NC(=S)NCc2cccnc2)cc1,-19.3%
O=C(COc1ccccc1Cl)Nc1ccc(CN2CCOCC2)cc1,11.7%
COC(=O)c1cc(C)sc1NC(=O)c1ccco1,10.8%
C=CCC(=O)N1CCCC(C(=O)c2ccc(Cl)cc2)C1 (centres undefined),7.7%
Cc1ccc(Nc2cc(C)nc3ncnn23)c(Cl)c1,-12.3%
CCOC(=O)C1CCN(c2ncnc3c2nnn3C)CC1,1.9%
COc1ccc(CNC(=O)C(=O)NCC(c2cccs2)S(=O)(=O)c2ccc(F)cc2)cc1 (centres undefined),7.1%
CCOCCCn1c(=N)c(C(=O)NC2CCCC2)cc2c(=O)n3cccc(C)c3nc21,8.5%

# Fetched by structure from above:
molecule,VDR inh
COC(=O)c1cc(C)sc1NC(=O)c1ccco1,10.8%
CCOc1c(Cl)cc(CNCC(C)C)cc1Cl,-4.1%
Cc1ccc(Nc2cc(C)nc3ncnn23)c(Cl)c1,-12.3%
CC(=O)Nc1cc(-n2cnnn2)ccc1C,-1.8%

# (cont.)
molecule,VDR inh
COC(=O)N1CCC2(CCCN(Cc3ccc(C#N)cc3)C2)CC1,?
COC(=O)c1cccc(C23CC4(C2)[C@H](CN(Cc2ccc(-c5ccccc5)cc2)[C@@H]4c2ccccc2)C3c2ccc(Cl)nc2)c1 (some centres undefined),-4.0%
Cc1cc(C)n2nc(C(=O)NC3CCCc4ccccc43)nc2n1 (centres undefined),-9.9%
CCOc1cc(CC(=O)N[C@@H](CC(C)C)c2ccccc2N2CCCCC2)ccc1C(=O)O,?
CC(C)=CCN1CCN(Cc2cccnc2)CC1CCO (centres undefined),-6.3%
Cc1cc(C)c2c(c1)-c1cc(C)nn1C(c1ccc3c(c1)OCO3)N2 (centres undefined),-3.5%
O=C(CSc1ccc2nnc(-c3ccncc3)n2n1)Nc1ccc2c(c1)OCO2,-7.0%
O=C(CN1CCCCCC1)Nc1cccc(Br)c1,2.2%
COc1ccccc1C(=O)OCc1cc(=O)n2nc(C(C)C)sc2n1,0.0%
O=C(CCNS(=O)(=O)c1c(Cl)cccc1Cl)OCC(=O)c1ccccc1F,-11.2%
COC(=O)NC1(C(F)(F)F)C(=O)Nc2c1c(=O)n(C)c(=O)n2C (centres undefined),3.8%
O=C(Nc1ccc(Cl)c(Cl)c1)c1ccccc1,7.2%
Cc1cc(=O)n2nc(N3CCC(C(=O)NCCc4ccc(Cl)cc4)CC3)sc2n1,22.7%
Cc1ccc2c(c1)C(c1ccc(F)cc1)N(C(=O)c1ccc(OC(C)C)cc1)CC(=O)N2 (centres undefined),-18.4%
CC(C)Cc1n[nH]c(=O)c2c1nnn2Cc1ccccc1F,-2.8%
O=C(CSc1nncc2ccccc12)Nc1cccc(C(=O)O)c1,-17.4%
O=C(N/N=C/c1ccc(Br)o1)/C(=C/c1ccc([N+](=O)[O-])cc1)NC(=O)c1ccccc1,2.8%
O=C(COC(=O)CCC(=O)c1cccs1)Nc1ccc(Cl)cn1,-7.5%
Fc1ccc(Nc2ccnc(Nc3ccc(F)cc3)n2)cc1,-8.7%
CCC(=O)N1CCN(c2ccccc2NC(=O)Cc2ccc(Cl)cc2)CC1,0.5%
CN(C)C(CNC(=O)c1cccc(S(=O)(=O)N(C)C)c1)c1ccccc1 (centres undefined),6.4%
COc1cc(C=O)ccc1OCCCOc1ccc([N+](=O)[O-])cc1,4.5%
COc1cc(NC(=O)c2cc(C3CC3)nc3c2c(C)nn3-c2ccccc2)cc(OC)c1,2.6%
Cc1ccc(OC(=O)c2cccc([N+](=O)[O-])c2)c(-n2nc3ccccc3n2)c1,-5.4%
Cc1nnc(N2C(=O)C(=O)/C(=C(/O)c3ccc4c(c3)OCCO4)C2c2ccc(F)cc2)s1 (centres undefined),-8.4%
CC(C)(C)C1CCC(=NNC(=O)C(=O)NCc2cccnc2)CC1 (centres undefined),-4.2%
O=C1OCC/C1=C\c1ccccc1,3.4%
CSc1nc(=S)n(Cc2ccccc2)c(C)c1C(C)=O,-18.5%
CCN(CC(=O)Nc1c(F)cccc1F)C(=O)COc1ccc2c(c1)CCC2,-10.7%
O=C(NC1CCCC1)C(c1ccsc1)N(CCc1ccccc1)C(=O)Cc1cccs1 (centres undefined),-25.7%

molecule,VDR inh
CCOC(=O)c1c(S(=O)(=O)N2CCC(C(=O)Nc3ccc(C)cc3C)CC2)c(C)n(C)c1C,-1.1%
C/C=C/C(=O)OCC(=O)Nc1ccc(F)cc1Cl,-4.2%
COc1cc(CN(C(=O)COc2ccccc2)c2ccccn2)cc(OC)c1OC,-2.6%
O=C(COn1nnc2ccc(C(F)(F)F)cc21)Nc1c(Cl)cccc1Cl,-9.1%
COc1ccc(Nc2nc(-c3ccccc3)nc3ccccc23)c(OC)c1,-15.8%
Clc1ccc(C[n+]2cc(-c3ccccc3)n3c2CCCCC3)c(Cl)c1,0.5%&-9.4%
CCCCOC(=O)Nc1ccc(OC)cc1S(=O)(=O)N1CCOCC1,10.6%
CCOC(=O)C1CCN(C(=O)CCN2C(=O)C3C4C=CC(C4)C3C2=O)CC1 (centres undefined),9.8%
O=C1CC(c2ccc(O)cc2)Oc2ccccc21 (centres undefined),?
O=[N+]([O-])c1ccc2c(c1)S(=O)(=O)C=C2,12.6µM*
O=C(NCCC1CCCCN1S(=O)(=O)c1ccc(F)cc1)C(=O)NC1CCCC1 (centres undefined),5.1%
CCN1CCN(C(=O)CN(c2cccc(Br)c2)S(=O)(=O)c2ccccc2)CC1,-4.8%
Cc1ccccc1-n1c(=O)c2ccccc2n2nnnc12,18.0%
COc1ccccc1N1CC(C(=O)OC(C)C(=O)N2CCCc3ccccc32)CC1=O (centres undefined),-18.2%
CCS(=O)(=O)NCCc1ccc(OC)c(OC)c1,0.4%
O=C(NCc1ccc2c(c1)OCO2)c1ccc(S(=O)(=O)NCC2CCCO2)cc1 (centres undefined),7.0%
COc1ccc2[nH]cc(CCNC(=O)Nc3cc(C)cc(C)c3)c2c1,14.3%
CCOc1ccc(-c2cc(NC(=O)c3ccc(C)cc3)c(C(=O)OC)s2)cc1,14.8%
C[C@@H]1[C@H](O)[C@@H](C)/C=C/C=C/C=C/C=C/C=C/C=C/C=C/[C@H](O[C@@H]2O[C@H](C)[C@@H](O)[C@H](N)[C@@H]2O)C[C@@H]2O[C@](O)(C[C@@H](O)C[C@@H](O)[C@H](O)CC[C@@H](O)C[C@@H](O)CC(=O)O[C@H]1C)C[C@H](O)[C@H]2C(=O)O,?
COc1ccccc1-c1nnc(NC(=O)CSc2nncn2C)s1,-2.3%
CCOC(=O)c1c(NC(=O)COC(=O)CCOc2ccc(OCC)cc2)sc(C(=O)N(C)C)c1C,9.2%
COc1ccc(OC)c2sc(N(Cc3cccnc3)C(C)=O)nc12,15.6%
CC1CCN(Cc2c(C(=O)N/N=C/c3ccccc3O)nnn2-c2nonc2N)CC1,-1.1%
Cn1cc(C(=O)NC2CCCCCC2)c(=O)c2cc(S(=O)(=O)N3CCCC3)ccc21,-14.4%
CC1Cc2ccccc2N1S(=O)(=O)c1cnc(Cl)c(Br)c1 (centres undefined),2.7%
O=C(CC12CC3CC(CC(C3)C1)C2)N1CCCC1,7.3%
O=C(CSc1nnnn1C1CCCCC1)Nc1ccccc1N1CCOCC1,-1.9%
Cc1ccc(CNC(=O)CN(C)S(=O)(=O)c2cccc3nsnc23)cc1,4.0%
COc1ccc(/C=C/c2nc3ccccc3n2Cc2ccc(OC)c(OC)c2)cc1,-2.8%
C=CCC[C@@H](Cc1ccc(F)cc1)C(=O)OC[C@@H](NC(=O)[C@H](CC=C)CC(=O)NCCO)C(C)(C)C,9.5%

molecule,VDR inh
Cc1ccccc1CSc1nnc(CCCCCNC(=O)OC(C)(C)C)o1,-13.7%
Cc1nc(Cl)cc(N/N=C/c2ccc(O)cc2)n1,-3.0%
O=C(NCCN1C(=O)S/C(=C\c2ccc(OC(F)F)cc2)C1=O)C1=COCCO1,-1.0%
COc1cc(Br)c(CN2C(=O)NC3(CCCCCC3)C2=O)cc1OC,1.9%
COC(=O)c1cnc2c(C(F)(F)F)cccc2c1OC,0.8%
Cc1ccc(O)c(C(=O)c2coc(=N)c(C(=O)NC(C)C)c2)c1,18.3%
Cc1ccc(S(=O)(=O)NNC(=S)NCCc2ccccc2)cc1,-16.1%
O=C(C1CCCC1)N1CCN=C1SCc1cccc([N+](=O)[O-])c1,2.9%
CCOc1cc(/C=C2\C(=O)N(c3cccc(C(F)(F)F)c3)C(=O)c3ccccc32)ccc1O,?
CC(C)(C)NC(=O)CSc1nc(O)cc(=O)n1-c1ccccc1F,-12.3%
Cc1csc(NC(=O)COCC(=O)O)c1-c1nc2ccccc2s1,-17.8%
COc1ccc(C2=[N+]([O-])C(C)(C)N(O)C2C)cc1 (centres undefined),-1.2%
O=C(NC1CCCCC1)N(Cc1nc2ccccc2c(=O)[nH]1)C1CCCC1,-7.2%
COc1cc(OC)cc(C(=O)N[C@H](C(=O)Nc2nc3ccc(S(C)(=O)=O)cc3s2)C(C)C)c1,2.3%
O=C(CCNC(=O)c1ccco1)NCCc1ccc(Cl)cc1,-7.3%
CC(C)(C)NC(=O)C(=O)NNC(=O)c1ccco1,-0.7%
CC(=O)n1cc(Nc2ccccc2C(=O)O)c2ccccc21,-9.9%
Cn1c(=O)c([N+](=O)[O-])c(Cl)c2ccccc21,17.8µM*
Cc1ccc(-c2nn(-c3ccc(F)cc3)cc2C(=O)N2CCN(C3CCS(=O)(=O)C3)CC2)cc1 (centres undefined),-12.7%
Cc1ccn2c(CNCCn3cccn3)c(C(=O)N3CCCCCC3)nc2c1,-7.5%
CC(=O)N1CCc2c(sc(NC(=O)Cc3ccc(F)cc3)c2C#N)C1,-11.9%
COc1ccc(C)cc1NC(=O)Nc1cccc(C(=O)O)c1,14.0%
CCCCC(Sc1nc2cc3c(cc2c(=O)n1CCCC(=O)NCc1ccc2c(c1)OCO2)OCO3)C(=O)OCC (centres undefined),10.2%
O=C(N/N=C/c1cccs1)c1ccccn1,-16.0%
COc1ccc(NC(=S)N(Cc2ccc(C(=O)O)cc2)Cc2ccc(OC)c(OC)c2)cc1,-9.6%
COc1cccc2c1Oc1ncccc1N(C(=O)Nc1ccc(F)c(Cl)c1)C2,15.6%
CCOC(=O)C1=C(COC(=O)/C=C/c2ccc(SC)cc2)NC(=O)NC1C (centres undefined),8.0%
O=C(NCc1cccnc1)c1cccc(-c2cc3ccccc3oc2=O)c1,12.0%
COc1ccc(CCNC(=O)CCCn2c(=O)c3cccn3c3ccccc32)cc1OC,3.2%
CCOC(=O)c1c(NC(=O)c2nc(S(C)(=O)=O)ncc2Cl)sc(C(C)=O)c1C,-28.5%

molecule,VDR inh
CCCCS(=O)(=O)c1oc(-c2cccs2)nc1S(=O)(=O)c1ccccc1,10µM*
Cc1c(CC(=O)NCCCC(=O)O)c(=O)oc2cc3oc4c(c3cc12)CCCC4,7.0%
COc1ccc(-n2nc([N+](=O)[O-])c(=NCc3cccnc3)n2O)cc1,-4.0%
O=C(COc1ccc2ccccc2c1)NNC(=O)Nc1ccc(F)cc1F,16.0%
COc1cc(/C=C/C(=O)c2ccc3c(c2)OCO3)cc(Cl)c1O,?
CCCCC(=O)N(CCOC)c1nnc(-c2cccnc2)s1,-2.9%

# Only part of the results is shown (hit frequency here may not be typical).
